High-throughput results from PubChem BioAssay.
D2 potentiator: human D2 receptor positive allosteric modulation. P14416. actives 0.23% (n = 360,000). DiscoveRx D2 beta-arrestin cells, luminescence, 90 min; 100% = 57 uM dopamine signal. potentiation, % (no concentration beside the values); active = potentiation of 50% or more; inconclusive = 30% to 50%; inactive = 30% or less;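 also: compound concentration not given in the record; tested on top of an EC20 dose of dopamine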
Target sequence (P14416 whole entry, looked up): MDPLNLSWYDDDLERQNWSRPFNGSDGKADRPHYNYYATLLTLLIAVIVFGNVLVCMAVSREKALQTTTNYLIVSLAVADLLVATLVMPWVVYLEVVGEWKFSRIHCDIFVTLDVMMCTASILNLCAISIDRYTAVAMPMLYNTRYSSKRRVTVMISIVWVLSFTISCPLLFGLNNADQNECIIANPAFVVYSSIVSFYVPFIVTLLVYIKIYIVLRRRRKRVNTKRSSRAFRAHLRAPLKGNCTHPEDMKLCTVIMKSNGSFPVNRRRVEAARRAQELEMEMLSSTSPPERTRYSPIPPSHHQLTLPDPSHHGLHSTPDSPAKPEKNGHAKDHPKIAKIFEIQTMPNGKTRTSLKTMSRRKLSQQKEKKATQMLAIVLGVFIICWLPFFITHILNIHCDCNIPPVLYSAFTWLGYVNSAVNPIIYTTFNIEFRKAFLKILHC
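D2 cells co-treated with compound plus 50 nM dopamine (EC20) for 90 min at 37 deg C to detect potentiation. Beta-arrestin recruitment was read as enzyme-fragment luminescence after 1 h at ambient temperature. Full response was set by 57 uM dopamine.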
TRPV1 PAM: potentiators of human vanilloid receptor 1 (TRPV1); Q8NER1; TRPV1-expressing cells, Fluo-8 calcium influx, capsaicin EC20 potentiation; host cell line not named in the record; control for the full effect not named in the record; potentiation, % at 8.33 µM; actives 0.02% (n = 320,000); AID 540277; active means potentiation above 80%; inconclusive means 30% to 80%; inactive means below 30%; also: 0% is about no effect
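Fluo-8 calcium influx in TRPV1-expressing cells, kinetic read (ex 480/em 520 nm). Compound added and read 3 min for agonist activity, followed by capsaicin at EC20 final and 2 min further read for enhancement.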
ClpP mod: qHTS Assay for Activators of ClpP; purified B. subtilis ClpP, FRET peptide cleavage, 20 min; Potency, µM (titrated, usually from 57.5 µM), inactives show at the highest dose activity change, negative = active; actives 1.9% (n = 340,000); active = well fitted falling curve with a large enough effect; inconclusive = small, poorly fitted or top-dose-only effect; inactive = no such curve, though single readings can be large or run the other way; also: potency is read from the fitted curve at half-maximal effect; the source files actives as falling curves though it sought activators and does not explain the sign; nearly all actives have a fitted effect of over 65% in size; many hits overshoot -100%
Target sequence (P80244 whole entry, looked up): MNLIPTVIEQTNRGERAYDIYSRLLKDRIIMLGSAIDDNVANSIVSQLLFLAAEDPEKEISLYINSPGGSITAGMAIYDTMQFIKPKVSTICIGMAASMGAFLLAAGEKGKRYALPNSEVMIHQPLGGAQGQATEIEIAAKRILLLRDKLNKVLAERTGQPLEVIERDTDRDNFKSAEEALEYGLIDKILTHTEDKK
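Buffer: 100 mM Tris/HCl pH8, 100 mM KCl, 0.05% low protease BSA, 2.5% glycerol, 0.01% Tween-20. ClpP 10 microg/mL final; 20 min RT; delta FRET normalized to ADEP and DMSO controls.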
Menin MLL FP FL: displaces fluorescein MLL peptide from human menin; Fluorescence polarization, fluorescein-MLL peptide displacement from menin; FP activity change, % at 61.4 µM; 290,000 tested, under 10 active; AID 1766; inconclusive = falling polarisation curve, or a change in total fluorescence; inactive = total fluorescence flat and polarisation flat or rising; no compound was filed as active; the % refers to the polarisation; negative = inhibition;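 also: % of control where 0% means no effect; inhibitors lower the polarisation; unlabelled MLL peptide was the positive control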
Sfp PPTase inh: inhibitors of Bacillus subtilis Sfp phosphopantetheinyl transferase; Q9F4F7; Biochemical Sfp PPTase activity, qHTS; Potency, µM, without a hit: max response, negative = inhibition, hits mostly inhibitors; actives 3.5% (n = 310,000); AID 1490; active = well fitted inhibition curve with a large enough effect; inconclusive = small, poorly fitted or top-dose-only effect, or another doubt; inactive = no such curve, though single readings can be large or run the other way;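 also: the enzyme is Sfp with the accession as filed and its product quenches rhodamine fluorescence; potency is read from the fitted curve at half-maximal effect; 0% = enzyme reaction without inhibitor and -100% = no enzyme wells; top concentration of the series not given in the record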
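After 15 min at room temperature with compound, 15 nM Sfp received 5 uM rhodamine-CoA plus 12.5 uM BHQ-2-ybbR (50 mM Hepes pH 7.6, 10 mM MgCl2). Rate came from the fluorescence difference over 30 min, ex 525/em 598 nm.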
gsp antag: gsp mutant antagonism; gsp-mutant cells, cAMP HTRF, 30 min; control for the full effect not named in the record; Potency, µM (top dose mostly 76.9 µM), without a hit: at the top dose activity change, negative = inhibition, actives largely listed as inhibitors; actives 0.4% (n = 340,000); AID 624288; active = falling curve of any shape with a large fitted effect; inconclusive = falling curve, mostly with a smaller effect; inactive = flat or rising curve; cell line not stated here;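 also: intracellular cAMP measured with PDE inhibitor Ro 20-1724 present during compound exposure; potency is read from the fitted curve at half-maximal effect; % is scaled to controls: 0 for no effect and ±100 for the full control effect; nearly all actives have a fitted effect of over 65% in size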
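HTRF cAMP read-out (cAMP-d2 plus anti-cAMP antibody-K in lysis buffer, 30 min RT). Before lysis, cells are exposed to compounds with […] for 30 min at 37C in DPBS containing Ca/Mg, BSA and Tween 20.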
gsp agonist: agonists of gsp mutant (McCune-Albright syndrome); gsp mutant cells, cAMP HTRF, 30 min; control for the full effect not named in the record; Potency, µM (highest dose often 76.9 µM), for the others: top-dose activation (cAMP increase), most hits filed as activators; actives 0.13% (n = 340,000); AID 624287; active = well fitted activation curve with a large enough effect; inconclusive = small, poorly fitted or top-dose-only effect, or another doubt; inactive = no such curve, though single readings can be large or run the other way; cell line not stated here;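 also: phosphodiesterase inhibitor Ro 20-1724 added with compounds to block cAMP breakdown; potency is read from the fitted curve at half-maximal effect; nearly all actives have a fitted effect of over 60% in size; about a fifth of the inactives were tested at one dose only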
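Cells in DMEM/10% FBS with G418 were pretreated with compounds in DMSO plus […] (300 uM stock) for 30 min at 37C. cAMP was measured by HTRF (cAMP-d2 plus anti-cAMP antibody-K) after 30 min at room temperature.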
* marks the source's active call; other numbers are inactive results; ? = inconclusive; · = no result given; & = joins results of further samples; [ ] = remark or other dose. Outcome played no part in choosing rows. About 5.1% of those tested had a hit in this group.

SMILES | D2 potentiator | TRPV1 PAM | ClpP mod | Menin MLL FP FL | Sfp PPTase inh | gsp antag | gsp agonist
Cc1ccc(C(=O)NCC(=O)OCC(=O)c2ccc(Br)s2)cc1 | -21 | -26 | -2.4% | · | · | 11% | 14µM*
Cc1c(C(=O)Nc2ccc3nc(N4CCOCC4)sc3c2)oc2ccccc12 | -1 | 14 | -16% | · | · | -23% | -11%
COC(=O)c1onc(C(=O)c2ccccc2)c1C(=O)OC | -10 | 1 | 0.0% | -0.6 | 15% | -20% | -7%
Cn1c2c(c(=O)[nH]c1=O)C(c1ccc(O)cc1)C1=C(N2)c2ccccc2C1=O (stereo unspecified) | -9 | -6 | · | -0.9 | -22% | ? | -2%[15.4 µM]
O=C(NC1CC2CCCC(C1)N2C(=S)Nc1ccc(Cl)cc1)C1CC1 (stereo unspecified) | -9 | 2 | · | -0.2 | 21% | 3% | 3%
NCCCC[C@H]1CN=C(N)N1CC1CCCCC1 | -22 | · | 2.0% | · | · | 12% | ·
CCOc1ccc(-c2ccc3nnc(SCC(=O)NCC4CCCO4)n3n2)cc1 (stereo unspecified) | -19 | 14 | 32µM* | · | · | 6% | ?
O=[N+]([O-])c1cccc(CP(=O)(c2ccccc2)c2ccccc2)c1 | 8 | -9 | 1.5% | · | · | -6% | -14%
CCOC(=O)CN1NC2(CCCC(C)C2)NC1=S (stereo unspecified) | -9 | 5 | -0.4% | -0.2 | 25µM* | 4% | -46%[inhibitor]
COc1cc(NC(=S)Nc2cccnc2)cc(OC)c1OC | 2 | -23 | -4.2% | 0.2 | ? | 2% | 0%
CC(=C\C(=O)O)/C(=C/c1ccccc1)C(=O)O | -11 | 2 | -0.3% | 2.7 | 14% | 1% | 12%
COC(=O)c1ccc(CN2CCC(Oc3ccc(C(=O)N4CCCCC4)cc3)CC2)cc1 | -35 | · | 1.6% | · | · | 14% | -55%[inhibitor]
CN(C)c1ccnc2c[cH-]cc12.[Fe].c1ccc(-[c-]2[c-](-c3ccccc3)[c-](-c3ccccc3)[c-](-c3ccccc3)[c-]2-c2ccccc2)cc1 (stereo unspecified) | -9&-10 | -25&25 | -2.7%&-0.6% | -3.8&0.2 | -24%&-14% | 13%&-4% | -2%
O=S(=O)(N1CCOCC1)n1c(Cc2ccccc2)nc2ccccc21 | -4 | 17 | 0.7% | -1.4 | -5% | 3% | -26%
CC(=O)Nc1ccc(Nc2ncc([N+](=O)[O-])c(Nc3ccc(NC(C)=O)cc3)n2)cc1 | -14 | 1 | 0.7% | 2.7 | -5% | 5% | 3%
CCCc1nc(SCC(=O)N2CCCC2)c2c(=O)n(C)c(=O)n(C)c2n1 | 2 | -1 | -0.2% | · | -7% | -29% | 26%
Cc1cc(C)n(CC(=O)NNC(=O)CC(C)c2ccccc2)n1 (stereo unspecified) | -6 | 6 | 0.0% | · | · | 7% | 12%
COc1ccc(-c2nnc(SCC(=O)NC(C)C)n2CC2CCCO2)cc1OC (stereo unspecified) | 17 | 19 | -2.7% | -3.1 | -10% | -1% | 14%
O=C(Nc1ncc(Cc2ccc(Cl)cc2Cl)s1)c1ccc([N+](=O)[O-])cc1 | 28 | 2 | 1.8% | · | 10% | 17% | -51%[inhibitor]
COc1ccc(NC(=O)/C(=C\c2ccccc2)NC(=O)c2ccco2)cc1 | 6 | 4 | · | -2.8 | 0% | 3% | 10%[15.4 µM]
COc1ccc(Cl)cc1NC(=S)NCc1ccc(S(N)(=O)=O)cc1 | -32 | -1 | -2.2% | · | 23% | 3% | 10%
CC(C)[C@H](CO)N(Cc1cccc(F)c1)c1nc(Nc2cccc(Cl)c2)c2ncn(C(C)C)c2n1 | -8 | -11 | ? | -0.7 | 7% | 7% | -19%
COc1cc(-n2c(C)nc3cc(C(=O)NCCN4CCOCC4)ccc32)cc(OC)c1OC | · | 4 | · | 5.5 | 19% | · | ·
Cc1ccc(S(=O)(=O)N(C)C)cc1NC(=S)NC(=O)C12CC3CC(CC(C3)C1)C2 | 10 | 0 | 2.5% | 4.4 | -6% | 7% | 28%
Cc1cccc(NC(=S)NCCSc2ccc(Cl)cc2)c1 | 1 | -6 | · | -0.5 | 24% | ? | 7%[15.4 µM]
CCN(CC)CCn1c2c(c(SCC(=O)Nc3ccc(C)c(F)c3)nc1=O)CCCC2 | -5 | 3 | -2.6% | · | · | 10% | -73%[inhibitor]
O=S(=O)(Nc1ccc(-c2csc(-c3ccccc3)n2)cc1)c1ccc(F)cc1 | 16 | 15 | -3.1% | -1.0 | 18% | 2% | -6%
CCOc1ccc(NC(=O)CSC2=C(C#N)C(c3ccc4c(c3)OCO4)CC(=O)N2)cc1 (stereo unspecified) | 1 | ? | 0.7% | 1.6 | -4% | -13% | 20%
CCC(C)(C)n1nnnc1C(c1ccc2ncccc2c1)N1CCN(Cc2ccc3c(c2)OCO3)CC1 (stereo unspecified) | -10 | 7 | -2.1% | 5.5 | 13% | 2% | -38%
COc1ccc(OC(C)C(=O)Nc2ccc(F)cc2F)cc1 (stereo unspecified) | -3 | 3 | · | 0.8 | 9% | 8% | -16%[15.4 µM]
CCOC(=O)C1CCN(C(=O)c2sc3ncn(CC(=O)N4CCCCC4)c(=O)c3c2C)CC1 | -8 | · | 0.0% | · | · | · | 16µM*
COc1ccc(-c2nc3ccccc3c(=O)[nH]2)cc1 | -3 | 6 | · | -4.0 | 3% | -2% | 0%
CC(C)(C)NS(=O)(=O)c1ccc(CCC(=O)NCc2ccc3c(c2)OCO3)cc1 | -8 | -5 | -0.2% | 0.0 | 11% | 10% | -4%
N#CCC1c2ccccc2CCN1C(=O)Nc1cccc(C(F)(F)F)c1 (stereo unspecified) | -17 | 24 | 1.9% | 1.0 | 30%[activator] | -3% | -3%
O=C1c2cccc3cccc(c23)C(=O)N1Cc1ccco1 | -8 | 6 | · | -1.1 | 11% | -6% | -2%[15.4 µM]
CS(=O)(=O)N1CCCC(C(=O)NCc2ccco2)C1 (stereo unspecified) | -5 | -9 | -2.2% | -0.2 | -3% | 8% | 0%
CNC(=O)c1ccc(NC(=O)c2cc(S(=O)(=O)N3CCOCC3)ccc2N2CCCC2)cc1 | -2 | 1 | -0.5% | · | · | 4% | -1%
CC1CCCCN1C(=O)CSc1nnc2c(n1)[nH]c1ccccc12 (stereo unspecified) | -10 | 6 | -0.2% | · | 15% | 0% | -4%[15.4 µM]
CC(C)NC(=O)N(O)C1N(Cc2ccc3c(c2)OCO3)C(=S)SC1(C)C (stereo unspecified) | -20 | -4 | 1.1% | -1.3 | 3% | 0% | -41%[inhibitor]
Cc1ccccc1S(=O)(=O)Cc1ccc(C(=O)N2CC(C)CC(C)C2)o1 (stereo unspecified) | -7 | -18 | 0.9% | 0.3 | -12% | -6% | -42%
C(=C\c1ccccc1)/CSc1nnc(-c2ccccc2)n1Cc1ccco1 | -3 | -5 | 1.1% | 2.1 | -47% | 15% | 25%
CCN(CC)S(=O)(=O)c1ccc(-c2nnc(SC)o2)cc1 | -14 | -20 | -12% | -1.4 | 8% | -2% | -14%
CN(C)S(=O)(=O)c1ccc(NC(=O)c2cc(F)c(F)cc2Cl)cc1 | 6 | -23 | -2.6% | -0.2 | 8% | -1% | -38%[inhibitor]
N#CC(c1nc2ccccc2nc1N1CCOCC1)S(=O)(=O)c1ccccc1 (stereo unspecified) | -3 | 10 | · | 5.1 | 16% | ? | 10%[15.4 µM]
CC[C@]1(C(=O)OC)[C@H]2C(=O)N(Cc3ccccc3)C(=O)[C@H]2[C@H]2CN=C(SCC(=O)c3ccccc3)N21 | -7 | · | -0.1% | · | · | -5% | ·
O=C(CCC(=O)N1CCOc2ccccc21)NC1CCCCCC1 | -16 | -1 | 0.4% | 3.1 | 19% | 10% | -5%
Cc1ccc(Cn2nnc3c(=O)[nH]c(C4CCCN(C(=O)c5ccco5)C4)nc32)cc1 (stereo unspecified) | 2 | 0 | · | -4.2 | 0% | -4% | -28%
C[C@H]1CC[C@H]2C(=O)N3[C@H](c4ccccc4Br)[C@@H](C)CC[C@H]3C(=O)N2[C@@H]1c1ccccc1Br | · | -8 | · | -1.5 | 6% | · | ·
CCc1ccc(C(=O)NC2CCCCC2)s1 | -18 | -13 | -0.8% | -0.7 | -7% | -13% | 21%
COc1ccc(NC(=O)CCNC(=O)C2CCN(S(=O)(=O)c3ccc(F)cc3)CC2)cc1OC | -7 | -6 | -0.6% | 0.6 | 8% | 15% | 6%
O=C(NCCCO)c1cc2c([nH]c3ccccc32)c(-c2ccc(F)cc2)n1 | -6 | -1 | · | -0.6 | -19% | -16% | -7%
O=C(CC1SC2=NCCN2C1=O)Nc1ccccc1 (stereo unspecified) | 1 | · | -0.6% | -0.8 | -5% | 10% | 19%
O=C(N/N=C1\CCCc2ccccc21)c1ccc([N+](=O)[O-])cc1 | -7 | 11 | 0.2% | -1.2 | -4% | 2% | -30%[inhibitor]
CCN1CCN(S(=O)(=O)c2ccc3c(c2)NC(=O)CS3)CC1 | -5 | 5 | -0.2% | 3.6 | 13% | -6% | -15%
CCCc1cc(=O)oc2c(C)c(OCc3nn[nH]n3)ccc12 | 1 | -2 | 3.8% | 0.4 | -4% | -10% | -30%
COc1ccc(C(CCNCc2ccc(N(C)C)cc2)c2ccccc2)cc1 (stereo unspecified) | -17 | 6 | · | 4.2 | -3% | 1% | -28%
O=C1NC(c2ccccc2)=CC(c2ccccc2O)N1 (stereo unspecified) | -13 | -4 | 0.1% | · | · | 4% | ·
C/C(CC(=O)Nc1ccccc1Cl)=N\NC(=O)C(=O)NCCO | -11 | 2 | 2.3% | 2.1 | -9% | -1% | -36%[inhibitor]
